Source: PubChem (National Center for Advancing Translational Sciences (NCATS))
RE007 growth inh: qHTS Assay for Inhibitors of the HIV-1 protein Vpr; 360,000 tested, 0.21% active; S. pombe RE007 Vpr strain, BacTiter-Glo ATP luminescence, 24 h; control for the full effect not named in the record; Potency, µM (highest dose often 92.2 µM), for inactives: at the highest dose activity change, negative = less growth; active = well fitted falling curve with a large enough effect; inconclusive = small, poorly fitted or top-dose-only effect; inactive = no such curve, though single readings can be large or run the other way;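 note: % is set by controls: 0 for no effect and ±100 for the full control effect; nearly all actives have a fitted effect of over 50% in size; the assay follows cell death caused by Vpr and the record does not say whether a fall means rescue or toxicity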
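Fission yeast RE007 carrying one integrated HIV-1 vpr copy, seeded at OD 0.01 in PMG+AL medium with 23 nL pinned compound. Grown 24 h at 30 degrees; viability read by BacTiter-Glo luminescence after 5 min.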
Cruzain inh noDet: qHTS Assay for Promiscuous and Specific Inhibitors of Cruzain (without detergent) | purified cruzain, Z-FR-AMC fluorescence, no detergent | Potency, µM, without a hit: max response, negative = inhibition, hits mostly inhibitors | 200,000 tested, 2.3% active;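 note: plate controls were enzyme without inhibitor for no effect and buffer without enzyme for full effect; nearly all actives have a fitted effect of over 40% in size; top concentration of the series not given in the record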
Target sequence (P25779 123-467 limits assumed): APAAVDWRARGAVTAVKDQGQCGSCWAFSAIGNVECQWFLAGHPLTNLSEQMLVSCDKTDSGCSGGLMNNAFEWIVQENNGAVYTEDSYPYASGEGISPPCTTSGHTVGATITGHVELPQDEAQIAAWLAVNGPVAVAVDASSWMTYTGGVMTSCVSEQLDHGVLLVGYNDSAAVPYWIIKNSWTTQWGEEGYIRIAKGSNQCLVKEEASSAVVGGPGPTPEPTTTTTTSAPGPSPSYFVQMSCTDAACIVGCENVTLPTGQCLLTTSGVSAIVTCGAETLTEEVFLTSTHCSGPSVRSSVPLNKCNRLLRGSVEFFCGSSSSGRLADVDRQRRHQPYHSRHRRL
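Detergent-free condition (0.00005% Triton X-100) in acetate buffer pH 5.5 with DTT. 1.5 nM enzyme and compound were pre-mixed 15 min, then 2 uM Z-FR-AMC substrate added; reaction progress from fluorescence change between first and third reads (60 s).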
Lassa entry inh: qHTS for Inhibitors of binding or entry into cells for Lassa Virus; Potency, µM (highest dose often 37.9 µM), for inactives: at the highest dose activity change, negative = inhibition, most hits filed as inhibitors; Lassa virus pseudotype entry inhibition, cell reporter; control for the full effect not named in the record; AID 540256, 2011; 300,000 tested, 1.2% active; active means well fitted inhibition curve with a large enough effect; inconclusive means small, poorly fitted or top-dose-only effect, or effect the other way; inactive means flat fitted curve, though single readings scatter; tested in HEK293 cells; note: % is set by controls: 0 for no effect and ±100 for the full control effect; nearly all actives have a fitted effect of over 50% in size; luciferase read-out
Cruzain inh Det: qHTS Assay for Promiscuous and Specific Inhibitors of Cruzain (with detergent) | Cruzipain (Trypanosoma cruzi), P25779 | purified cruzain, Z-FR-AMC fluorescence, 0.01% Triton | Potency, µM, without a hit: max response, negative = inhibition, usual class: inhibitors | 200,000 tested, 0.43% active;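 note: plate controls were neutral wells for no effect and buffer without enzyme for full effect; nearly all actives have a fitted effect of over 40% in size; top concentration of the series not given in the record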
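Detergent-containing arm of a paired screen for aggregation-based inhibition: 0.01% Triton X-100 present. Cruzain at 1.5 nM cleaved 2 uM Z-FR-AMC at pH 5.5 with 5 mM DTT; AMC fluorescence gain over 60 s measured activity.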
Marburg entry inh: qHTS for inhibitors of binding or entry into cells for Marburg Virus | Marburg virus pseudotyped entry inhibition, cell reporter; control for the full effect not named in the record; about a third of the inactives were read at about 46 µM | Potency, µM (series often up to 37.8 µM), for inactives: at the highest dose activity change, negative = inhibition, actives largely listed as inhibitors | 300,000 tested, 1.8% active | AID 540276, 2011; active = well fitted inhibition curve with a large enough effect; inconclusive = small, poorly fitted or top-dose-only effect, or effect the other way; inactive = flat fitted curve, though single readings scatter; tested in HEK293 cells; about a fifth of its hits are not listed in these tables; note: % is set by controls: 0 for no effect and ±100 for the full control effect; luciferase read-out
StopGo reporter: High Throughput Screening for Foot and Mouth Disease Virus Antivirals; 410,000 tested, 1.2% active; human cells with a luciferase reporter of 2A StopGo recoding; control for the full effect not named in the record; Potency, µM (doses to about 57.9 µM), for inactives: at the top dose signal change, negative = less light; active = well fitted falling curve with a large enough effect; inconclusive = small, poorly fitted or top-dose-only effect; inactive = no such curve, though single readings can be large or run the other way; tested in HEK293T cells; note: % is set by controls: 0 for no effect and ±100 for the full control effect; nearly all actives have a fitted effect of over 45% in size; luciferase light after 4 h
SARS PLpro yeast: qHTS of Yeast-based Assay for SARS-CoV PLP. Potency, µM (highest dose often 32.9 µM), without a hit: at the highest dose activity, positive = growth rescue. 330,000 tested, 0.19% active. S. cerevisiae expressing SARS-CoV PLpro, growth rescue; control for the full effect not named in the record. AID 485353, 2010; active means well fitted rising curve with a large enough effect; inconclusive means small, poorly fitted or top-dose-only effect; inactive means no such curve, though single readings can be large or run the other way; note: 0% is about no effect; nearly all actives have a fitted effect of over 55% in size; growth read by luminescence after 48 h
NS1 function inh: qHTS Assay for Inhibitors of Influenza NS1 Protein Function; S. cerevisiae slowed by influenza A NS1, growth recovery by OD600; Potency, µM (doses to about 46.1 µM), without a hit: at the top dose activity, positive = more growth; 270,000 tested, 0.4% active; active means well fitted rising curve with a large enough effect; inconclusive means small, poorly fitted or top-dose-only effect; inactive means no such curve, though single readings can be large or run the other way; note: nearly all actives have a fitted effect of over 50% in size
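In this qHTS, NS1 from influenza A is expressed in budding yeast, where it slows growth. Cells are switched from glucose to 2% galactose medium (pH 6.0, -URA), treated with compound, and growth recovery is read at OD600.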
An asterisk follows results filed as active; & = joins results of further samples; [ ] = another dose, or the depositor's remark. Unless noted, calls come from the whole dose curve; as a rule, active = well fitted curve in the direction sought with a large enough effect; inconclusive = small, poorly fitted or top-dose-only effect, or another doubt; inactive = no such curve, though single readings can be large; an effect the other way counts as inactive or inconclusive. Potency is the fitted concentration of half-maximal effect.

Results for CO/N=C/CC(=O)Nc1ccc(F)cc1F ?
RE007 growth inh: 0%; Cruzain inh noDet: 0%; Lassa entry inh: -1%; Cruzain inh Det: 7.8%; Marburg entry inh: -7%; SARS PLpro yeast: 3%; NS1 function inh: 3%

Results for Cn1cccc1C(=O)NC1CCCCC1 ?
RE007 growth inh: -12%; Lassa entry inh: 25%; Marburg entry inh: 17%[46.1 µM]; StopGo reporter: 11%; SARS PLpro yeast: -7%

How did O=c1nc(Nc2cccc(Cl)c2)oc2cc(Cl)oc(=O)c12 do in these assays?
RE007 growth inh: -7%; StopGo reporter: 27%; SARS PLpro yeast: 1%; NS1 function inh: 6%

What do the screens show for `C=CCOc1c(Br)cc(CNCCCN2CCOCC2)cc1OC`?
RE007 growth inh: -2%; StopGo reporter: -1%; SARS PLpro yeast: 0%; NS1 function inh: 12%

How did CC(=O)Cc1nsc(NC(=O)c2csc3c2CCCC3)n1 do in these assays?
RE007 growth inh: -8%; Cruzain inh noDet: 16%; Lassa entry inh: 24%; Cruzain inh Det: -4.8%; Marburg entry inh: 3%; StopGo reporter: 25%; SARS PLpro yeast: -1%; NS1 function inh: -15%

How did CCCNC(=O)CCC(=O)N1Cc2ccccc2Oc2ncccc21 do in these assays?
Cruzain inh noDet: -5%; Lassa entry inh: inconclusive; Cruzain inh Det: -2.7%; StopGo reporter: -11%

Results for Cc1ccc(S(=O)(=O)N(C)C)cc1NC(=O)COC(=O)c1c(C)noc1C ?
RE007 growth inh: -3%; Cruzain inh noDet: 9%; Lassa entry inh: 7%; Cruzain inh Det: -0.5%; Marburg entry inh: -21%; StopGo reporter: 7%; SARS PLpro yeast: 6%; NS1 function inh: 1%

Results for Cc1cc(C)nc(NC(=O)NS(=O)(=O)N2CCCCCC2)n1 ?
RE007 growth inh: 0%; Cruzain inh noDet: 4%; Lassa entry inh: 6%; Cruzain inh Det: 3.4%; Marburg entry inh: -15%; StopGo reporter: -6%; SARS PLpro yeast: 7%; NS1 function inh: 2%

What do the screens show for `Cc1ccc(S(=O)(=O)c2nc(S(=O)(=O)c3ccc(C)cc3)c(NCc3ccco3)s2)cc1`?
RE007 growth inh: -8%; Cruzain inh noDet: 32µM*; Lassa entry inh: -15%; Cruzain inh Det: 0.0%; Marburg entry inh: -7%&-7%; StopGo reporter: 20%; SARS PLpro yeast: 3%; NS1 function inh: 9%

Results for O=C(c1ccc(CN2CCOCC2)cc1)N1CCN(c2ccccc2)CC1 ?
RE007 growth inh: 14%; Cruzain inh noDet: 10%; Lassa entry inh: 16%; Cruzain inh Det: 0.7%; Marburg entry inh: 1%; SARS PLpro yeast: 8%; NS1 function inh: 6%

How did CCC1CCCCN1C(=O)CSc1nnc2nc(C)cc(C)n12 (centres undefined) do in these assays?
RE007 growth inh: 19%; Lassa entry inh: 5%; Marburg entry inh: 18%; StopGo reporter: -23%; SARS PLpro yeast: 1%

How did CC(=O)Nc1ccc(NCc2ccc(-c3ccccc3)cc2)cc1 do in these assays?
RE007 growth inh: -3%; Lassa entry inh: 2%[46.1 µM]; Marburg entry inh: -3%[46.1 µM]; StopGo reporter: -2%

Results for CCOCC(O)CS(=O)(=O)c1ccccn1 (centres undefined) ?
RE007 growth inh: 13%; Cruzain inh noDet: 4%; Lassa entry inh: 30%[14.3 µM]; Cruzain inh Det: 3.9%; Marburg entry inh: 7%; StopGo reporter: 9%; SARS PLpro yeast: 1%; NS1 function inh: 11%

How did COc1ccc(C(=O)/C=C/Nc2c(C)n(C)n(-c3ccccc3)c2=O)cc1OC do in these assays?
RE007 growth inh: -14%; Cruzain inh noDet: -8%; Lassa entry inh: -1%; Cruzain inh Det: -3.5%; Marburg entry inh: 2%; StopGo reporter: -17%; SARS PLpro yeast: -4%; NS1 function inh: 20%

What do the screens show for `O=S(=O)(c1ccc(F)cc1)N1CCN(c2ccc(F)cc2)CC1`?
RE007 growth inh: -8%; StopGo reporter: -25%; SARS PLpro yeast: 2%; NS1 function inh: -34%

What do the screens show for `O=C(O)/C(=C\c1cn(-c2ccccc2)nc1-c1ccc(Cl)cc1)NC(=O)c1ccccc1`?
RE007 growth inh: 6%; StopGo reporter: -3%; SARS PLpro yeast: -1%; NS1 function inh: 2%

How did O=C(c1ccco1)N1CCn2c1nc1ccccc12 do in these assays?
RE007 growth inh: -15%; Cruzain inh noDet: 17%; Lassa entry inh: 18%; Cruzain inh Det: -3.4%; Marburg entry inh: inconclusive; StopGo reporter: 30%; SARS PLpro yeast: -11%; NS1 function inh: -13%

How did COc1cccc2c1Oc1ncccc1N(C(=O)CCC(=O)NCc1ccc(N(C)C)cc1)C2 do in these assays?
Cruzain inh noDet: -2%; Cruzain inh Det: -0.4%; StopGo reporter: -10%

What do the screens show for `COCCCNC(=S)N1CCN(S(C)(=O)=O)CC1`?
RE007 growth inh: -11%; Cruzain inh noDet: -11%; Lassa entry inh: 27%; Cruzain inh Det: 2.4%; Marburg entry inh: 14%; StopGo reporter: -23%; SARS PLpro yeast: -9%; NS1 function inh: 6%

Results for O=C1CN(N=Cc2ccco2)C(=O)N1 ?
RE007 growth inh: 4%; Lassa entry inh: -2%[46.1 µM]; Marburg entry inh: 15%[46.1 µM]; StopGo reporter: -7%

Results for Cc1cc(Cl)c(S(=O)(=O)N2CCN(c3cccc(C)c3C)CC2)cc1OCC(N)=O ?
RE007 growth inh: -7%[3.69 µM]; Cruzain inh noDet: inconclusive; Lassa entry inh: -18%; Cruzain inh Det: -3.8%; Marburg entry inh: inconclusive; StopGo reporter: inconclusive; SARS PLpro yeast: 0%; NS1 function inh: 16%

What do the screens show for `CCOc1ccc(C(=O)NC2CC(=O)N(c3ccc(C)cc3)C2)cc1OCC` (centres undefined)?
Cruzain inh noDet: 10%; Lassa entry inh: 17%[46.1 µM]; Cruzain inh Det: 0.3%; StopGo reporter: -10%

How did CCN(C(=O)Cn1cnc2cc([N+](=O)[O-])ccc2c1=O)C1CCS(=O)(=O)C1 (centres undefined) do in these assays?
RE007 growth inh: 4%; Lassa entry inh: -9%[46.1 µM]; Marburg entry inh: -14%[46.1 µM]; StopGo reporter: 2%; SARS PLpro yeast: 1%

How did Cc1ccnc(NS(=O)(=O)c2ccc(NC(=O)c3cc(=O)c4ccccc4o3)cc2)n1 do in these assays?
RE007 growth inh: -3%; StopGo reporter: -7%; SARS PLpro yeast: 3%; NS1 function inh: 12%

What do the screens show for `Cc1ccc2nc(-c3cccc(N)c3)[nH]c2c1`?
RE007 growth inh: inconclusive; Cruzain inh noDet: -24%; Lassa entry inh: inconclusive; Cruzain inh Det: -2.5%; Marburg entry inh: inconclusive; StopGo reporter: -42%; SARS PLpro yeast: -41%; NS1 function inh: -1%

How did CC(=O)c1cccc(N/C=C\C(=O)c2ccc(C)cc2)c1 do in these assays?
RE007 growth inh: -15%; Cruzain inh noDet: 4%; Lassa entry inh: 7.9µM*; Cruzain inh Det: -10%; Marburg entry inh: inconclusive; StopGo reporter: -33%; SARS PLpro yeast: -4%; NS1 function inh: -42%

How did O=C(Nc1ccc(Cl)cc1)Nc1ccccc1C(=O)NCc1ccco1 do in these assays?
RE007 growth inh: -2%; Cruzain inh noDet: 6%; Lassa entry inh: 11%; Cruzain inh Det: -13%; Marburg entry inh: -12%; SARS PLpro yeast: -10%; NS1 function inh: 3%

How did Cc1cc(C=O)c(C)n1C(C)C do in these assays?
RE007 growth inh: -25%; Marburg entry inh: -9%[46.1 µM]; StopGo reporter: 0%; SARS PLpro yeast: 1%

How did CCOC(=O)c1c(NC(=O)Cc2coc3cc(C)ccc23)sc2c1CCCC2 do in these assays?
Cruzain inh noDet: -18%; Lassa entry inh: 26%[46.1 µM]; Cruzain inh Det: -3.3%; Marburg entry inh: 17%[46.1 µM]; StopGo reporter: -5%

How did FC(F)(F)c1ccc(NCc2ccccn2)nc1 do in these assays?
RE007 growth inh: -4%; StopGo reporter: 25%; SARS PLpro yeast: -2%; NS1 function inh: 2%

Results for N#C/C(=C\c1cn(-c2ccccc2)nc1-c1ccccc1)S(=O)(=O)c1ccccc1 ?
RE007 growth inh: 27%; Cruzain inh noDet: inconclusive; Lassa entry inh: 8%; Cruzain inh Det: -3.4%; Marburg entry inh: 10%; StopGo reporter: 14%; SARS PLpro yeast: 2%; NS1 function inh: 8%

Results for c1ccc(-c2cnc(SCCN3CCOCC3)n2CC2CCCO2)cc1 (centres undefined) ?
RE007 growth inh: -14%; Cruzain inh noDet: -3%; Lassa entry inh: inconclusive; Cruzain inh Det: 1.5%; Marburg entry inh: 2%; StopGo reporter: 9%; SARS PLpro yeast: -21%; NS1 function inh: 8%

Results for O=C(NCc1ccccc1)c1cc(-c2ccncc2)nc2ccc(S(=O)(=O)N3CCOCC3)cc12 ?
RE007 growth inh: -6%; Cruzain inh noDet: inconclusive; Lassa entry inh: 12%&6%; Cruzain inh Det: -0.6%; Marburg entry inh: -24%&2%; StopGo reporter: -14%; SARS PLpro yeast: -1%; NS1 function inh: 13%

Results for COc1cc(NS(=O)(=O)c2cccc3nsnc23)cc(OC)c1 ?
RE007 growth inh: 8%; Cruzain inh noDet: 0%; Lassa entry inh: 20%; Cruzain inh Det: -6.2%; Marburg entry inh: 13%; StopGo reporter: 65%[activator]; SARS PLpro yeast: 1%; NS1 function inh: -16%

How did COC(=O)CCC(=O)OC do in these assays?
RE007 growth inh: 3%; Cruzain inh noDet: 3%; Cruzain inh Det: 0.0%; StopGo reporter: -2%; SARS PLpro yeast: -8%

Results for O=C(c1ccccc1)n1nc(-c2ccco2)nc1NCc1ccccc1Cl ?
Cruzain inh noDet: -2%; Lassa entry inh: 15%[46.1 µM]; Cruzain inh Det: -1.9%; Marburg entry inh: 11%[46.1 µM]; StopGo reporter: 27%

Results for O=C(O)c1ccc(S(=O)(=O)/N=C2\C=C(Nc3ccccc3F)C(=O)c3ccccc32)cc1 ?
RE007 growth inh: inconclusive; Marburg entry inh: inconclusive; StopGo reporter: inconclusive; SARS PLpro yeast: -33%; NS1 function inh: -33%

How did COc1cccc(C(=O)c2cn(CC(=O)Nc3cccc(Cl)c3C)c3nc(C)ccc3c2=O)c1 do in these assays?
Cruzain inh noDet: 2%; Lassa entry inh: 19%[46.1 µM]; Cruzain inh Det: 1.3%; StopGo reporter: -24%

Outcome played no part in choosing rows. Share with any hit: about 4.7%.
